CHT PAM – allosterically activates the human high affinity choline transporter; CHT-expressing cells, membrane potential dye, choline EC20; stronger effect = higher value; LV-AA mutant CHT in HEK293 cells; B-score at 10 µM; Q9GZV3; 310,000 compounds, 0.49% hits;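 active = initial fluorescence not abnormally high and integrated response B-score, plate-corrected, over 3 SD above library mean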
Target sequence (Q9GZV3 whole entry, looked up): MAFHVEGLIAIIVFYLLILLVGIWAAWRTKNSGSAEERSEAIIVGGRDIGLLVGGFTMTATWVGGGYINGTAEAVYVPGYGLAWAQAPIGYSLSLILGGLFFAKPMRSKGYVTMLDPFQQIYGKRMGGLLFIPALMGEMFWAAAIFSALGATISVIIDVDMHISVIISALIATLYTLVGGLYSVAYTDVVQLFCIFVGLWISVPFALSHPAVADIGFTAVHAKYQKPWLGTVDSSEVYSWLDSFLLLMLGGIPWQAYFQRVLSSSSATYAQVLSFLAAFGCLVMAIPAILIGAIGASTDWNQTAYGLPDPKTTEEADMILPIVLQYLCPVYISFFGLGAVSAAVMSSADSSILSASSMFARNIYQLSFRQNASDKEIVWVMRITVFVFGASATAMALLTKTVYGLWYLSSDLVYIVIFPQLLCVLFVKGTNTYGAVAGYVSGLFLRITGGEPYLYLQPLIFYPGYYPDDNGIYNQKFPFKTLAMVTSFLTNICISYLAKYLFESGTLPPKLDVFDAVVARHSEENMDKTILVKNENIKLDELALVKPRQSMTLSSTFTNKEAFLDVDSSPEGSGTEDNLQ
Calls only; i = inactive. These rows are one share of the data; most or all hits stand in other tables.

entry | SMILES | CHT PAM
1 | O=C(C1CCC(=O)N(C2CCCC2)C1)N1CCC(Oc2ccccc2Cl)CC1 (stereo unspecified) | i
2 | O=C(CCNC(=O)c1ccco1)NCc1ccccc1 | i
3 | O=C(/C=C/c1ccc(Cl)cc1Cl)NCc1ccncc1 | i
4 | COc1ccc(C(=O)NNC(=O)Cn2nnc(-c3ccc(OC)c(OC)c3)n2)cc1 | i
5 | O=C(COC(=O)CNS(=O)(=O)c1c(Cl)cccc1Cl)Nc1ccccc1Sc1ccccc1 | i
6 | Cc1cc(C)cc(NC(=S)N2CCC(NC(=O)c3ccccc3C)CC2)c1 | i
7 | O=C(N/C(=C\c1cccc([N+](=O)[O-])c1)C(=O)N1CCCCC1)c1cccs1 | i
8 | O=C(OCC(=O)N1CCN(c2ccccc2)CC1)c1nc(Cl)ccc1Cl | i
9 | O=C(NC(=S)N1CCN(c2ccc([N+](=O)[O-])cc2Cl)CC1)c1ccco1 | i
10 | CC(=O)Nc1cccc(NC(=O)Nc2cccc(Cl)c2C)c1 | i
11 | NS(=O)(=O)c1ccc(CCNC(=O)C(=O)NCC2OCCN2S(=O)(=O)c2cc(F)ccc2F)cc1 (stereo unspecified) | i
12 | COC(=O)c1ccc(CN2C(=O)NC(Cc3c[nH]c4ccccc34)C2=O)cc1 (stereo unspecified) | i
13 | COc1ccc(/C=C/C(=O)c2ccc(NC(=O)c3cccs3)cc2)cc1OC | i
14 | CCN1CCSc2ccc(C(=O)NCc3ccccc3F)cc21 | i
15 | O=C(COC(=O)c1cc(-c2cccs2)nn1-c1ccccc1)Nc1cc([N+](=O)[O-])ccc1Cl | i
16 | CCOC(=O)C(=NCC1CCCO1)NNc1ccccc1Cl (stereo unspecified) | i
17 | Cc1cccc(C(=O)Nc2ccccc2C(=O)OCC(=O)Nc2ccc(C#N)cc2)c1 | i
18 | COc1ccccc1N(CC(=O)Nc1ccc(Cc2ccncc2)cc1)S(=O)(=O)c1ccccc1 | i
19 | C=CCn1c(C)cc(C(=O)CSc2ccc(NC(C)=O)cc2)c1C | i
20 | CCc1ccccc1NS(=O)(=O)c1ccc(SC)cc1 | i
21 | COc1ccc(-c2coc3cc4oc(=O)c5ccccc5c4cc23)cc1F | i
22 | O=C(Nc1ccnn1C1CCN(C(=O)c2cccc(Cl)c2)CC1)C1CC1 | i
23 | N#CCO/N=C/C(=O)Nc1ccc(F)cc1F | i
24 | Cc1ccc(OCC(=O)N/N=C/C=C/c2ccco2)cc1 | i
25 | Cc1ccc(S(=O)(=O)NN)c(C)c1N1CCCC1=O | i
26 | C=CCn1c2ccccc2c2nnc(SCCN3CCOCC3)nc21 | i
27 | O=C(O)CSC(=S)N1CCCC1 | i
28 | CC(C)Cn1c(=O)[nH]c2ccccc21 | i
29 | C=CCN1CCN(C(=O)c2ccc(-c3ccccc3)cc2)CC1 | i
30 | COc1cccc(CNn2c(-c3cccc(C)c3)nc3ccccc3c2=O)c1 | i

(cont.)
entry | SMILES | CHT PAM
31 | Fc1cccc(Cl)c1Cn1nnc(-c2ccc(N3CCOCC3)cc2)n1 | i
32 | CC(=O)N1CCCc2cc(S(=O)(=O)CCC(=O)N3CCN(c4ccccc4)CC3)ccc21 | i
33 | COc1ccc(CNC(=O)C/C(C)=N/NC(=O)COc2ccc(C)cc2Br)cc1 | i
34 | CCn1cc(C(=O)O)c(=O)c2cc(F)c(N3CCN(C(=S)NC(=O)c4ccccc4C)CC3)cc21 | i
35 | COCCNC(=O)c1ccc2c3n(nc2c1)-c1ccccc1CO3 | i
36 | COc1ccc(-n2nnnc2SCC(=O)NCc2cccs2)cc1 | i
37 | COC/C=C/C1=CC2=CC(=O)C(C)(OC(=O)c3cnc4ccccc4n3)C(=O)C2=CN1c1ccc(OC)cc1 (stereo unspecified) | i
38 | CC(=O)c1ccc(NC(=O)N2CCN(c3cccc(Cl)c3)CC2)cc1 | i
39 | CCn1c(SCC(=O)Nc2ccc(OC)c(OC)c2)nnc1-c1cccs1 | i
40 | CC(C)OCCCNC(=O)Cn1ccc2cc(S(=O)(=O)N3CCCCCC3)ccc21 | i
41 | CNC(=O)COc1cccc(C(=O)NCc2ccccc2)c1 | i
42 | COCCNC(=O)C(c1cccc(OC)c1)N(Cc1cccs1)C(=O)Cn1nnc2ccccc21 (stereo unspecified) | i
43 | COc1ccc(Br)cc1C(=O)Nc1ccc(C(=O)NCC(C)C)cc1 | i
44 | Cc1ccc(-c2ccc(/C=C(\C#N)C(N)=S)n2C)cc1 | i
45 | COc1ccccc1NS(=O)(=O)c1cccc2nsnc12 | i
46 | CN(C)CCCN1CC(C(=O)O)CC1=O (stereo unspecified) | i
47 | O=C(NNC(=O)C1CC1c1ccccc1)c1ccccc1F (stereo unspecified) | i
48 | C[C@]12C[C@H](O)[C@H]3[C@@H](CCC4=CC(=O)CC[C@@]43C)[C@@H]1CC[C@@H]2C(=O)CO | i
49 | COc1ccccc1OCC(=O)N(Cc1nnc(-c2ccccc2Cl)o1)C1CC1 | i
50 | O=C(C1CCN(C2CCN(C/C(Cl)=C/c3ccccc3)CC2)CC1)N1CCOCC1 | i
51 | CC(C)(C)NC(=O)c1cc([N+](=O)[O-])ccc1N1CCCCC1 | i
52 | COc1ccc(S(=O)(=O)N2CCC(NC(=O)OCc3c(Cl)cccc3Cl)CC2)cc1 | i
53 | O=C(O)CCCN1C(=O)C2C3CC(C2C1=O)C1C(c2ccccc2)c2sc(=O)n(-c4ccccc4)c2SC31 (stereo unspecified) | i
54 | O=C(COC(=O)CNS(=O)(=O)c1ccc2ccccc2c1)Nc1ccc2c(c1)OCO2 | i
55 | O=C(Nc1cccc(S(=O)(=O)Nc2ccccc2Cl)c1)c1ccc(N2CCCC2)c([N+](=O)[O-])c1 | i
56 | CN(Cc1nccs1)C(=O)C1CCC(=O)N(CCc2ccc(Cl)cc2)C1 (stereo unspecified) | i
57 | O=S(=O)(Nc1ccc(Cc2ccncc2)cc1)c1ccc(Br)s1 | i
58 | NC(=O)Cn1nnc(-c2ccc(CN3CCCCC3)cc2)n1 | i
59 | Cc1c(Cl)cccc1Nc1nc(N)nc(CSc2nc3ccccc3s2)n1 | i
60 | CCOc1ccc(NC(=O)c2ccc3[nH]c(=O)c(=O)[nH]c3c2)cc1 | i

Brought forward from above: 5 compounds, then new ones.
entry | SMILES | CHT PAM
56 | CN(Cc1nccs1)C(=O)C1CCC(=O)N(CCc2ccc(Cl)cc2)C1 (stereo unspecified) | i
57 | O=S(=O)(Nc1ccc(Cc2ccncc2)cc1)c1ccc(Br)s1 | i
58 | NC(=O)Cn1nnc(-c2ccc(CN3CCCCC3)cc2)n1 | i
59 | Cc1c(Cl)cccc1Nc1nc(N)nc(CSc2nc3ccccc3s2)n1 | i
60 | CCOc1ccc(NC(=O)c2ccc3[nH]c(=O)c(=O)[nH]c3c2)cc1 | i
61 | COc1ccccc1CNC(=O)N1CCN(c2ccccc2Cl)CC1 | i
62 | COC(=O)c1c(C)oc(C)c1S(=O)(=O)NCc1ccc(OC)cc1 | i
63 | O=c1/c(=C/c2ccco2)sc2n1CN(c1ccccc1)CN=2 | i
64 | COc1ccc(CCn2c(N)c(S(=O)(=O)c3cccs3)c3nc4ccccc4nc32)cc1OC | i
65 | CN(C)c1ccc(C=NCCC2(O)CCOC(C)(C)C2)cc1 (stereo unspecified) | i
66 | Cc1ccc(-c2nnnn2-c2ccc(C)cc2)cc1 | i
67 | Cc1ccc(OCC(=O)Nc2cccc(S(=O)(=O)NC3=NCCCCC3)c2)cc1C | i
68 | COc1ccc(OCc2cccc(C(=O)Nc3ccc(CN4CCCCC4)cc3)c2)cc1 | i
69 | COc1cc(/C=C/C(=O)OCC(=O)N2CCC(C)CC2)ccc1O | i
70 | CC(=C/c1ccco1)/C=N/NC(=O)Cc1cccn1C | i
71 | Cn1c([N+](=O)[O-])cnc1N1CCN(c2nncs2)C1=O | i
72 | CC(=O)c1ccc(S(=O)c2ccccc2)cc1 (stereo unspecified) | i
73 | CCOC(=O)N1CCC(NC(=O)C2CCN(C(=O)N3CC(C)Oc4ccc(C)cc43)CC2)CC1 (stereo unspecified) | i
74 | COc1ccc(S(=O)(=O)N(C)CC(=O)NCC2CCCO2)cc1OC (stereo unspecified) | i
75 | Cc1ccc(S(=O)(=O)N2CCN(C(=O)c3ccc(-n4cncn4)c([N+](=O)[O-])c3)CC2)cc1 | i
76 | OCCC1CN(Cc2cccn2-c2ccccn2)CCN1C1CCCC1 (stereo unspecified) | i
77 | c1ccc(Cn2nc(-c3ccccc3)nc2-c2ccccc2)cc1 | i
78 | CCOC(=O)c1ccccc1NC(=O)Nc1ccc(OC)c(OC)c1 | i
79 | CC(Sc1nc2ccccc2s1)C(=O)NCc1ccc2c(c1)OCO2 (stereo unspecified) | i
80 | CCC(C(=O)NC(C)(C)C)N(C(=O)c1ccc(Cl)nc1)C1CCCC1 (stereo unspecified) | i
81 | CN1CCc2c(sc3c2C(=O)NC(/C=C\c2ccccc2)N3)C1 (stereo unspecified) | i
82 | Cc1nn(C)cc1NC(=O)CC12CC3CC(CC(C3)C1)C2 | i
83 | CC(=O)NC(CC(=O)N(C)Cc1cccc(Cl)c1Cl)c1ccccc1 (stereo unspecified) | i
84 | O=C(N1CCOCC1)C(F)(F)C(F)(F)C(F)(F)C(F)(F)C(=O)N1CCOCC1 | i
85 | Cc1cccc(OCC2CCCN(Cc3nc(C4CC4)no3)C2)c1 (stereo unspecified) | i
86 | CCCOc1ccc(C(=O)NCCc2ccccc2)cc1 | i
87 | O=S1(=O)CCN2C=C(Cl)C=C(Cl)C2=N1 | i
88 | CCN(CC)c1ccc(C(=O)OCc2c(C)noc2C)cc1 | i
89 | Cc1cccc(N2CCN(C(=O)CCNS(=O)(=O)c3ccc4c(c3)CCC(=O)N4)CC2)c1C | i
90 | COCCNC(=O)CN(C(=O)Cn1nnc2ccccc21)c1ccccc1 | i

A draw from above in order of formula weight, rising.
entry | SMILES | CHT PAM
87 | O=S1(=O)CCN2C=C(Cl)C=C(Cl)C2=N1 | i
82 | Cc1nn(C)cc1NC(=O)CC12CC3CC(CC(C3)C1)C2 | i
69 | COc1cc(/C=C/C(=O)OCC(=O)N2CCC(C)CC2)ccc1O | i
78 | CCOC(=O)c1ccccc1NC(=O)Nc1ccc(OC)c(OC)c1 | i
67 | Cc1ccc(OCC(=O)Nc2cccc(S(=O)(=O)NC3=NCCCCC3)c2)cc1C | i

The list continues:
entry | SMILES | CHT PAM
91 | CC(=O)c1cc(C#N)c(Oc2cc(C)cc(C)c2)nc1C | i
92 | COc1ccc(CNC(=O)/C=C/c2cc([N+](=O)[O-])ccc2OC(F)F)cc1 | i
93 | Nc1nc(NCc2ccco2)nc(Nc2ccc(F)cc2)c1[N+](=O)[O-] | i
94 | CCN(C(=O)COC(=O)c1cc(OC)c(OC)cc1[N+](=O)[O-])C1CCS(=O)(=O)C1 (stereo unspecified) | i
95 | C#CCn1c2ccccc2c2nc3ccccc3nc21 | i
96 | Cc1ccc(S(=O)(=O)N2CCC(C(=O)OCC(=O)N(C)CC(=O)Nc3ccc(F)cc3)CC2)cc1C | i
97 | O=C(CCc1ccc(S(=O)(=O)NCCc2ccccc2)cc1)Nc1ccc2c(c1)OCCO2 | i
98 | Cc1cc(C)c(NC(=O)C2CCC(=O)N2)c(C)c1 (stereo unspecified) | i
99 | COCCCn1c(Cc2csc(Nc3cccc(Cl)c3)n2)nnc1SCC(=O)OC1CCCCC1 | i
100 | COc1cccc(NC(=O)C2CCCN2C(=O)OCc2ccccc2)c1 (stereo unspecified) | i
101 | Cc1ccc(C(=O)Nc2ccccc2[N+](=O)[O-])cc1S(=O)(=O)N1CCOCC1 | i
102 | CCCc1nc(Nc2nc3ccccc3o2)nc(C)c1C(=O)OCC | i
103 | Cc1c(N=C2NC(=O)/C(=C/c3cccc([N+](=O)[O-])c3)S2)c(=O)n(-c2ccccc2)n1C | i
104 | CC(C)C1N(C(=O)N(C)C)CCN1S(=O)(=O)c1ccccc1 (stereo unspecified) | i
105 | O=C(O)CNS(=O)(=O)c1cccc2nsnc12 | i
106 | Cc1nc(N2CCN(c3ccccn3)CC2)c2c(C)c(C(=O)Nc3c(C)cc(Br)cc3C)sc2n1 | i
107 | Cc1noc(C)c1CSc1cc(C)c2ccccc2n1 | i
108 | COc1ccc(OC)c(NC(=O)[C@@H]2CCCN2C(=O)c2cccs2)c1 | i
109 | CCOc1ccc(CNC(=O)C(C)n2nc(C)c3c(C)n(-c4ccccc4)nc3c2=O)cc1 (stereo unspecified) | i
110 | Nc1ccc2nc(SCc3ccccc3F)sc2c1 | i
111 | CCOCC(=O)NCc1ccc2c(c1)OCO2 | i
112 | CC(=O)N(CN1C(=O)c2ccc([N+](=O)[O-])cc2C1=O)c1ccc(F)cc1 | i
113 | CCCCCOC(=O)c1cc(=O)[nH]c2ccccc12 | i
114 | Cc1ccnc(NC(=O)CCC(=O)N(CC(=O)NC2CCCCC2)c2cccc(C)c2C)c1 | i
115 | COc1ccc(Cn2nnnc2C(c2cc3ccc(OC)cc3[nH]c2=O)N2CCC(C)CC2)cc1 (stereo unspecified) | i
116 | O=C(Nc1cc(SCC(O)CO)cc([N+](=O)[O-])c1)c1ccc(-n2cnnn2)cc1 (stereo unspecified) | i
117 | Cc1ccc(C(=O)C2=C(O)C(=O)N(CCCN(C)C)C23C(=O)N(C)c2ccccc23)o1 (stereo unspecified) | i
118 | COc1ccc2c(CC(=O)OCC(=O)c3ccccc3OC)coc2c1 | i
119 | CC1(C)CC(=O)C(N=Nc2cc(Cl)c(Cl)c(Cl)c2)=C(O)C1 | i
120 | COc1ccc(NC(=O)CN2C(=O)C(c3ccccc3)=NC23CCCCCC3)cc1OC | i

(next part)
entry | SMILES | CHT PAM
121 | COC(=O)C1=C(C)N(c2ccc(OC)cc2)C(=O)/C1=C\c1cccs1 | i
122 | COc1ccc(NC(=O)CC(C)C)c([N+](=O)[O-])c1 | i
123 | O=C(CSc1nc2ncc(Cl)cc2[nH]1)c1ccc2c(c1)OCO2 | i
124 | Cc1ccc2occ(C(c3nnnn3C3CCCC3)N3CCN(C(=O)c4ccco4)CC3)c(=O)c2c1 (stereo unspecified) | i
125 | COc1ccc(C2CC(=O)c3cnc(NC(=O)c4ccccc4)nc3C2)c(OC)c1 (stereo unspecified) | i
126 | COc1cccc(NS(=O)(=O)c2cc3c4c(c2)CCC(=O)N4CCC3)c1 | i
127 | CCn1c(C)nc2cc(C(=O)N/N=C/c3ccc(OC)c(O)c3)ccc21 | i
128 | CCNC(=O)NC(=O)C(C)On1nnc2ccc(S(=O)(=O)N(CC)CC)cc21 (stereo unspecified) | i

Source: PubChem (Johns Hopkins Ion Channel Center)
